From PubChem BioAssay
CBX7 inh: blocks human CBX7 binding to H3K27me3 peptide; AID 1224903; normalised signal (fraction of DMSO) (concentration not given with the values); O95931; actives 1.1% (n = 66,000); AlphaScreen His6-CBX7 / biotin-H3K27me3 peptide binding; hits give low values; in the data active means normalised signal below about 0.5;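 further: 100 nL library stock added to about 20 µL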
Target sequence (O95931 whole entry, looked up): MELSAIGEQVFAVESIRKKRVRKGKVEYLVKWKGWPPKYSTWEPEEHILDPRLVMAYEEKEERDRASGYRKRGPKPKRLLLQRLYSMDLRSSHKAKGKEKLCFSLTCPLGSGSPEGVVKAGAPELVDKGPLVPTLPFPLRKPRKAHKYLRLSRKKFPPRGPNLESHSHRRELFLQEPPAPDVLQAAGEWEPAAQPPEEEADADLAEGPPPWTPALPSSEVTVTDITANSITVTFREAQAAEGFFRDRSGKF
CBX7 inh z-score: recorded beside CBX7 inh, whose call it bears; z-score; measured here: z-score of CBX7 signal; some inactives read as strong as hits; reference of the scale not given here;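 same signal on another scale; lower means less binding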
An asterisk follows results filed as active; & = joins results of further samples.

Structure,CBX7 inh,CBX7 inh z-score
Cc1cccc(-c2nc(CN3CCCC(C(=O)NCc4ccccc4)C3)c(C)o2)c1 (configuration not stated),0.943,-1.59
CCC(Cc1ccccc1)NC(=O)c1ccc2c(c1)N=C(C)c1c(C)ccc(C)c1S2 (configuration not stated),0.858,-2.19
Cc1nn(C)c(C)c1CN(C)C(=O)c1cc(-c2ccccc2)nc2ccc(Br)cc12,1.05,1.47
c1ccc(Cc2nnc3sc(-c4ccc5c(c4)OCCO5)nn23)cc1,0.974,-0.758
COc1ccc(-c2nc(CSCC(=O)NCC(OC)OC)c(C)o2)cc1,1.13,1.38
CC1(C)CC(=O)c2cc(C(=O)Nc3ccccc3)c(=O)n(-c3ccc(Cl)cc3)c2C1,1.55,2.4
CCn1c(C(=O)N=C2NC(=O)CN2C)cc2sc(Cl)cc21,0.95,-1.98
Cc1ccc(Nc2nc(-c3ccc(C(C)C)cc3)cs2)nc1,0.949,-1.32
COc1ccc(OC)c(S(=O)(=O)NCCc2c(C)[nH]c3ccc(OC(F)(F)F)cc23)c1,0.616,-0.382
COc1ccc(C2=CC(Cl)=C(c3cccs3)Oc3ccccc32)cc1,1.02,0.814
COc1ccc(-c2nn(C)c3sc(C(=O)N4CCN(c5ccccn5)CC4)cc23)cc1OC,0.964,-1.02
COc1ccc2nc(NC(=O)c3ccc(OC(C)=O)cc3)sc2c1,1.06,0.581
Cc1ccc(NC(=O)CN(c2ccc(C(C)C)cc2)S(=O)(=O)c2cccnc2)cc1,1.08,0.56
Fc1ccc(CNc2nc(-c3ccccc3)cc(C(F)(F)F)n2)cc1,1.26,2.91
COc1ccc(NC(=O)c2oc3ccc(S(=O)(=O)N4CCC5(CC4)OCCO5)cc3c2C)cc1,0.748,-3.47
C=CCNC(=O)c1cc(=O)[nH]c2ccc(S(=O)(=O)N3CCC(C)CC3)cc12,1.06,1.13
COc1ccc(-c2noc(N(C)CC(=O)Nc3cc(Cl)ccc3OC)n2)cc1,1.06,2.15
CCOC(=O)c1cc(-c2ccccc2)n(-c2cccc(C(=O)Nc3ccc(OC)c(OC)c3)c2)c1C,0.786,-3.85
C=CCN1C(=O)CSc2ccc(C(=O)NCc3cccs3)cc21,1.06,1.59
CCOC(=O)c1c(CN2CCCC2)n(C2CCCCC2)c2cc(Br)c(O)cc12,0.687,-4.32
Cc1nnc(NC(=O)CSc2nnc(Cc3cc(=O)[nH]c(=O)[nH]3)n2-c2ccc(Cl)cc2)s1,1.01,0.308
O=C(CN1N=C(c2ccccc2)CCC1=O)NCC1CCCO1 (configuration not stated),1.1,1.49
O=C(NCCC1=CCCCC1)c1ccc2c(c1)ncn2C1CCCC1,1.04,0.409
COc1cccc(OCC(=O)OC2CCS(=O)(=O)C2)c1 (configuration not stated),1.2,1.46
Cc1ccc(CCNC(=O)C2C3C=CC4(CN(Cc5ccccc5Cl)C(=O)C24)O3)cc1 (configuration not stated),0.985,-0.776
O=C(Nc1cccc(Cl)c1)C(Cc1ccccc1)NS(=O)(=O)c1cccs1 (configuration not stated),1.06,1.85
CCN1CCN(c2cc(C)nc3c(-c4ccccc4OC)c(C)nn23)CC1,1.4,2.33
Brc1ccc(Nc2nc3nonc3nc2N2CCN(Cc3ccccc3)CC2)cc1,0.683,-2.14
O=C1CC(N2CCN(Cc3ccc4c(c3)OCO4)CC2)C(=O)N1c1cccc(Cl)c1 (configuration not stated),0.882,-1.81
CCC(C)NC(=O)c1ccc2c(c1)N(Cc1cccc(F)c1)C(=O)c1ccccc1S2 (configuration not stated),0.914,-1.14

In a second layout: 3 of the compounds above.
Results follow in this order: CBX7 inh | CBX7 inh z-score
CCN1CCN(c2cc(C)nc3c(-c4ccccc4OC)c(C)nn23)CC1
  1.4 | 2.33
Cc1ccc(Nc2nc(-c3ccc(C(C)C)cc3)cs2)nc1
  0.949 | -1.32
CCOC(=O)c1cc(-c2ccccc2)n(-c2cccc(C(=O)Nc3ccc(OC)c(OC)c3)c2)c1C
  0.786 | -3.85

Complete entries, quoted from the list. Screens in order: CBX7 inh | CBX7 inh z-score
COc1ccc2nc(NC(=O)c3ccc(OC(C)=O)cc3)sc2c1 across the screens: 1.06 | 0.581
Cc1cccc(-c2nc(CN3CCCC(C(=O)NCc4ccccc4)C3)c(C)o2)c1 (configuration not stated) across the screens: 0.943 | -1.59

Going on with the list:
Structure,CBX7 inh,CBX7 inh z-score
CCc1ccc(-c2nc(CN3CCC(C(=O)NCc4ccccc4)CC3)c(C)o2)cc1,1.28,2.36
Nc1c(C(=O)Nc2ccc(Oc3ccccc3)cc2)nnn1Cc1ccccc1,1.01,0.101
COc1cccc(C(=O)Nc2nc(-c3ccc(Br)cc3)c(C)s2)c1,0.922&1.01,-1.23&0.111
Cc1cc2cc(CCNC(=O)c3cc(Br)ccc3Cl)c(=O)[nH]c2cc1C,0.988,-0.527
O=C(O)Cn1cc(S(=O)(=O)N2CCN(c3ccccc3F)CC2)c2ccccc2c1=O,1.08,0.0891
CCc1cc(C)cc(OCC(O)Cn2cnc3cc(C)c(C)cc32)c1 (configuration not stated),0.562&0.707,-4.3&-7.36
Cc1cccc(N(C)C(=O)CCc2nc(-c3ccccc3F)no2)c1,0.927,-1.58
CCn1c(C(=O)Nc2ccc3c(c2)OCO3)cc2sc(Cl)cc21,1.01,0.204
Cc1ccc(CN2C(=O)c3ccccc3Sc3ccc(C(=O)NCCN(C)C)cc32)cc1,1.02,0.708
Cc1ccc(S(=O)(=O)C2(C(=O)Nc3cccc(C(F)(F)F)c3)CC2)cc1,1.08,1.36
Cc1ccc(-n2ncnc2-c2cccc(Cl)c2)cc1Cl,1.05,0.674
CCN(CCNC(=O)c1ccc2c(c1)ncn2C1CCCC1)c1ccccc1,0.863,-4.11
Cc1ccc(S(=O)(=O)Nc2nc3ccc(C(=O)N4CCCCC4)cc3s2)cc1,1.12,0.918
CCN(CC)CC(O)Cn1c2c(c3cc(Cl)ccc31)CCCC2=O (configuration not stated),1.01,0.497
O=C(CCN1N=C(c2ccccc2)CCC1=O)Nc1ccc(F)cc1F,0.976,-0.647
C=CCN(C(=O)Cn1nc(Cc2cccnc2)c2ccccc2c1=O)c1ccccc1,0.979,-0.672
CCc1ccc(NC(=O)N2CCC(c3ccccc3)C2)cc1 (configuration not stated),1.04,1.01
O=C(Cn1nnc(-c2ccc(F)cc2)n1)Nc1ccc(OC(F)(F)F)cc1,1.07,0.0941
O=C(c1ccc2nc(N3CCOCC3)sc2c1)N1CCN(c2ncccn2)CC1,1.04,1.6
O=C(Nc1nnc(-c2cccnc2)s1)c1ccc(Cl)c(Cl)c1,1.05,0.509
Cc1cc(C)c(S(=O)(=O)NCCc2cc3ccc(C)c(C)c3[nH]c2=O)c(C)c1,1.06,1.1
O=C(CN1C(=O)CSc2ccc(S(=O)(=O)N3CCCC3)cc21)NCCc1ccccc1,0.99,-0.265
Cc1nn(-c2ccccc2)c(Cl)c1C(=O)Nc1ccccc1Cl,0.948,-0.692
COCCNC(=O)CSc1nc(-c2ccc(OC)cc2)[nH]c1-c1ccc(OC)cc1,0.78,-3.61
CCC1CCCCN1CCCNC(=O)c1ccc2c(c1)NC(=O)CN2C (configuration not stated),1.05,0.0451
O=C(Nc1cccnc1)C1CC(c2ccc(F)cc2)=NO1 (configuration not stated),1.04,1.83
COc1cccc(C2=NOC(C(=O)N3CCN(c4ccc(F)cc4)CC3)C2)c1 (configuration not stated),1.01,0.0913
Cn1c2ccccc2c2nnc(SCC(=O)Nc3nc4ccccc4s3)nc21,1.05,0.108
COc1ccccc1-c1c(C)nn2c(N3CC(C)CC(C)C3)cc(C)nc12 (configuration not stated),1.05,0.745
CC1CCC(NC(=O)CN(C)S(=O)(=O)c2cccc3cccnc23)CC1 (configuration not stated),0.992,-0.181
COc1ccccc1C(=O)N(Cc1nc(-c2ccc(C)cc2)no1)C(C)C,0.963,-0.363
O=C(CSc1nnc(-c2ccc3c(c2)OCCO3)o1)N1CCN(c2ccccc2)CC1,0.973,-0.545
Cc1cccc(NC(=O)COc2ccc(-c3nn(C)c(=O)c4ccccc34)cc2)c1,0.961,-1.76
O=C(CCCn1c(=O)c2sccc2n(Cc2ccc(F)cc2)c1=O)NCc1ccc2c(c1)OCO2,0.97,-0.653
COc1cccc2sc(NC(=O)c3ccc(S(=O)(=O)N4CCc5ccccc5C4)cc3)nc12,0.927,-0.831
COC(=O)c1c(NC(=O)C(C)Oc2ccc(C)c(C)c2)sc2c1CCCC2 (configuration not stated),1.08,3.28
COc1ccccc1-c1nnc(NC(=O)c2ccc(S(=O)(=O)N(C)C)cc2)o1,0.036*,-16.2*
COc1ccc(CNS(=O)(=O)c2ccc3c(c2)CCN3C(=O)C2CC2)cc1,1.02,0.529
O=C1CC(N2CCC(Cc3ccccc3)CC2)C(=O)N1c1ccc(F)cc1 (configuration not stated),0.992,-0.15
COc1ccc(-c2nn(C)c3sc(C(=O)NC(C)c4ccc5c(c4)OCCO5)cc23)cc1OC (configuration not stated),0.88,-3.37
COc1ccc(OC)c(NC(=O)c2c(NCc3sccc3C)sc3c2CCCC3)c1,0.493*,-10*
CCOC(=O)N1CCN(C(=O)CN2C(=O)CC(C)(C)S(=O)(=O)c3ccccc32)CC1,1.03,1.02
O=C1Nc2ccccc2OC1CC(=O)N1CCN(C2CCCCC2)CC1 (configuration not stated),0.957,-0.249
CCOc1ccc(NC(=O)NCCc2c[nH]c3ccc(OC)cc23)cc1,0.914,-3.44
COc1ccccc1OCCCn1c(C2CC(=O)N(c3cc(C)ccc3C)C2)nc2ccccc21 (configuration not stated),1.02,0.112
COc1ccccc1NC(=O)CSc1oc(-c2ccccc2)nc1S(=O)(=O)c1ccccc1,0.873,-0.905
COc1ccccc1-c1cc2nc(C)c(CCC(=O)Nc3cc(Cl)cc(Cl)c3)c(C)n2n1,1.07,1.67
COc1ccccc1-c1cc2nc(C)c(CCC(=O)Nc3ccc(F)cc3)c(C)n2n1,0.808,-3.15
Cc1noc(C)c1S(=O)(=O)N1CCCC(C(=O)NCc2cccnc2)C1 (configuration not stated),1.05,0.957
COc1ccccc1Nc1nc(C)nc2sc3c(c12)CCC3,1.15,1.57
CCN(CC)CCCNC(=O)c1sc2ncn(CC(=O)N3CC(C)CC(C)C3)c(=O)c2c1C (configuration not stated),0.961,-1.03
O=C(Nc1ccc(Cl)cn1)C1(S(=O)(=O)c2ccc(Cl)cc2)CC1,1.04,1.54
COc1ccc(C(=O)NCCc2c(C)[nH]c3ccc(OCc4ccccc4)cc23)cc1OC,0.521,-6.94
Cc1nn(-c2ccccn2)c2c1-c1nc(N3CCOCC3)ncc1CC2,0.927,-1.17
CCc1ccc(OCC(=O)Nc2c(C(=O)c3ccc(Br)cc3)oc3ccccc23)cc1,1.07,0.143
CCCN(CCC)C(=O)CC(c1ccccc1)C1CCOC(C)(C)C1 (configuration not stated),0.902,-1.06
CCOC(=O)C1=C(C)NC(=O)CC1c1ccccc1OC (configuration not stated),0.896,-2.36
COC(=O)c1ccc(C(=O)Nc2ccccc2-c2nc3ccccc3s2)cc1,1.08,1.53
COc1ccccc1N1CCN(c2cc(C)nc3c(-c4ccc(Cl)cc4)c(C)nn23)CC1,1.01,0.0573
CCOC(=O)c1sc(NC(=O)c2ccc(Cl)s2)nc1C,1.02,0.322

(continued)
canonical_smiles | CBX7 inh | CBX7 inh z-score
CCCNC(=O)Cn1cnc2sc(C(=O)Nc3ccccc3C(=O)OC)c(C)c2c1=O | 1.05 | 0.68
Cc1ccc(S(=O)(=O)Nc2nc3ccccc3nc2Nc2ccc(O)cc2)cc1 | 0.583 | -7.58
O=C(Nc1c(-c2ccccc2)nc2ccccn12)c1c(F)cccc1F | 1.01 | 0.124
Cc1sc2ncn(CC(=O)NCC(=O)Nc3ccc(Oc4ccc(Cl)cc4)cc3)c(=O)c2c1C | 1.27 | 2.63
COc1ccc(Nc2ncc(C(=O)Nc3ccc(F)cc3Cl)c3ccccc23)cc1 | 1.04 | 0.752
O=C(c1cccc(NC2=NC3CS(=O)(=O)CC3S2)c1)N1CCN(c2cccc(Cl)c2)CC1 (configuration not stated) | 0.858 | -1.55
COc1ccc(CSc2nc3ccccc3[nH]2)cc1 | 0.975 | -0.745
Cc1ccc(CNC(=O)c2ccc3nc(N4CCC(C)CC4)sc3c2)cc1 | 1.02 | 0.503
CCCCc1nnc(NC(=O)Nc2ccc(C)cc2)s1 | 1.02 | 0.626
CCOC(=O)c1cc(-c2ccc(OC)cc2)n(CCC(=O)Nc2ccc(C)cc2)c1C | 0.899 | -2.39
CCc1cccc(C)c1Nc1c(-c2ccc(N(C)C)cc2)nc2cnccn12 | 0.668 | -7.41
CCC(C(=O)NCCC1=CCCCC1)N1C(=O)COc2ccc(C(C)(C)C)cc21 (configuration not stated) | 1.05 | 0.709
COc1ccc(C2=NOC(C(=O)Nc3ccc(C)cc3)C2)cc1 (configuration not stated) | 1.05 | 1.86
CCN1CCN(C(=O)c2c[nH]c3ccc(S(=O)(=O)Nc4cc(C)cc(C)c4)cc3c2=O)CC1 | 0.903 | -1.8
COC(=O)c1c(-c2ccc(F)cc2)csc1NC(=O)C1CC=CCC1C(=O)O (configuration not stated) | 0.92 | -1.24

Reformatted field by field: entries from further up
CCN1CCN(c2cc(C)nc3c(-c4ccccc4OC)c(C)nn23)CC1
  CBX7 inh = 1.4; CBX7 inh z-score = 2.33

COC(=O)c1ccc(C(=O)Nc2ccccc2-c2nc3ccccc3s2)cc1
  CBX7 inh = 1.08; CBX7 inh z-score = 1.53

Filtered by structure: those above containing a furan ring, fused or not (two)
canonical_smiles | CBX7 inh | CBX7 inh z-score
COc1ccc(NC(=O)c2oc3ccc(S(=O)(=O)N4CCC5(CC4)OCCO5)cc3c2C)cc1 | 0.748 | -3.47
CCc1ccc(OCC(=O)Nc2c(C(=O)c3ccc(Br)cc3)oc3ccccc23)cc1 | 1.07 | 0.143

Only part of the results is shown. The share of hits here may be higher or lower than overall.
